# Bioassay records: PubChem, Broad Institute
# Beta cell apopt: inhibitors of cytokine-induced beta cell apoptosis, primary screen, luminescence | INS-1E cytokine-induced death, ATP luminescence, 48 h; percent of positive-control rescue, neutral wells zero | protection from apoptosis, % (test concentration not listed) | 300,000 compounds, 0.8% hits | AID 435005, 2010;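 active = all replicates at 75% or more, or half of them and the mean; inconclusive = half reach 75% but not the mean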;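 note: 0% = cytokine-treated negative control wells and 100% = positive control rescue; higher means more ATP so stronger rescue from cytokine killing; wells of about 40 µL received 100 nL stock; the first replicate is given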
# AF4-AF9 inh: inhibitors of AF4 peptide binding to AF9, primary screen, biochemical, AlphaScreen, biotin-AF4 peptide, FLAG-AF9, single point. inhibition, % at 10 µM. 350,000 compounds, 0.47% hits;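 active = every replicate reaching a set inhibition limit, whatever the replicate mean, cut at about 25% in these data; inconclusive = mean inhibition reaches that limit but some replicates miss it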;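 note: 0% = plate neutral control median and 100% = total signal loss; the record names both 10 and 1 µM as test concentration; the first replicate is given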
# Target sequence (P42568 whole entry, looked up): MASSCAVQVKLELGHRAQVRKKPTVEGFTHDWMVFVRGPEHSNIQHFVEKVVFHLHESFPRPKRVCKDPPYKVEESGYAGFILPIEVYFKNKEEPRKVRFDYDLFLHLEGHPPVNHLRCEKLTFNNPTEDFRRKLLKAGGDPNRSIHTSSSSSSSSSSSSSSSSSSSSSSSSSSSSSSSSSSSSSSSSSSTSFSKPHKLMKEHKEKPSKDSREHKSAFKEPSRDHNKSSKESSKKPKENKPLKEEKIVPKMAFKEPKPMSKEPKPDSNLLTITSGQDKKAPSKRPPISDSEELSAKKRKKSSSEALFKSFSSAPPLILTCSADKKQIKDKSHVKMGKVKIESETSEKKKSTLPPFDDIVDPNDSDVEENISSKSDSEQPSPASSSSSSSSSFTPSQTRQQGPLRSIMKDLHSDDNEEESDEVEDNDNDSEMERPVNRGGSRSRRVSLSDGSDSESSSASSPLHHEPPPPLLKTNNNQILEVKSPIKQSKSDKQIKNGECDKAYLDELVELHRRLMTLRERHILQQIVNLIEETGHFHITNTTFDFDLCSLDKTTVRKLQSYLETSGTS
# Ecoli rRNA inh: reduced GFP signal of wild-type E. coli, primary screen, bacterial rRNA inhibitor project, GFP/RFP fluorescence, OD600, single point | E. coli WT GFP vs humanized-ribosome RFP mutants, 24 h; hits give low values; DMSO median 0, no signal -100 | GFP signal change (wild-type ribosome), % (no concentration beside the values) | 350,000 compounds, 1.6% hits;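 active = significant combined selectivity score with lowered wild-type GFP, culture density cut under 30%, mutant RFP and density less affected; inactive = any of these conditions unmet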; note: one replicate is shown; some compounds called inactive have numbers as strong as hits
# T cruzi repl: inhibitors of intracellular T. cruzi growth, primary screen, luminescence, NIH3T3 host cells; T. cruzi beta-gal in NIH3T3, 90 h; inhibition, % (test concentration not listed); 300,000 compounds, 1.4% hits;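 active = mean inhibition across valid replicates above about 55%, limit read from the data; inconclusive = mean below that limit but half or more replicates reach it; inactive = mean below it, under half of replicates reach it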;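 note: signal also drops with host cell toxicity which is not excluded here; 0% = plate median of DMSO wells and 100% = zero luminescence signal; higher percent means less beta-gal luminescence so fewer parasites; stock transfer was 50 nL into about 50 µL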
# FGF22 binding: binders of human FGF22 protein, primary screen, FGF22 synaptogenesis inhibitor project, biophysical, thermal shift, single point; Fibroblast growth factor 22 (Homo sapiens), Q9HCT0; recombinant FGF22 thermal shift, SYPRO orange fluorescence; percent of sucrose octasulfate shift, DMSO zero; calls only at 9.99 µM; 340,000 compounds, 1.5% hits; AID 651658, 2012;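 active = melting point raised past a set limit in the mean and every replicate; inconclusive = no clear call; three in four hits are not shown here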
# Target sequence (Q9HCT0 whole entry, looked up): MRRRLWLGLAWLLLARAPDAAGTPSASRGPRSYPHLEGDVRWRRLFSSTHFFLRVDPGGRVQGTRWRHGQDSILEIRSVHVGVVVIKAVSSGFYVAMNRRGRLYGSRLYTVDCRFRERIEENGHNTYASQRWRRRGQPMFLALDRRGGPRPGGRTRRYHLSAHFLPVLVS
# RanGTP-Imp inh: inhibitors of RanGTP-importin-beta interaction, primary screen, biochemical, FRET, CFP-Ran, YFP-importin-beta, homogeneous; cell-free CFP-Ran/YFP-importin-beta FRET ratio; inhibition, % (concentration not given with the values); 300,000 compounds, 1.1% hits; AID 2216, 2009;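 active = most replicates above 15%; inconclusive = exactly half above 15%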;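 note: 0% = DMSO wells and 100% = Ran loaded with GDP instead of GTP; wells of about 40 µL received 100 nL stock; the first replicate is given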
# Calb FLC: C. albicans growth inhibition with fluconazole, primary screen, CaCi-2 strain, Alamar Blue fluorescence; AID 1979, 2009; C. albicans CaCi-2 (fluconazole-resistant clinical isolate) + fluconazole, 48 h; growth inhibition, % (test concentration not listed); 300,000 compounds, 0.57% hits;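 active = most replicates above 75%; inconclusive = exactly half above 75%; inactive = most below 75%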;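 note: all wells also contain fluconazole at 8 µg/ml as a sub-toxic cotreatment; 0% = median of DMSO wells and 100% = median of geldanamycin control wells; wells of about 8 µL received 7.5 nL stock; the first replicate is given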
# ALR inh: inhibitors of human ALR sulfhydryl oxidase, primary screen, biochemical, H2O2 detection, HRP-luminol luminescence, single point; FAD-linked sulfhydryl oxidase ALR (Homo sapiens), P55789; purified ALR, DTT oxidation; inhibition, % (no concentration beside the values); 290,000 compounds, 3.8% hits;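 active = mean and each replicate at 75% or more; inconclusive = only one of the two met; inactive = neither met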;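 note: stock transfer was 7.5 nL into about 7.5 µL; 0% = neutral wells and 100% = wells with inactivated enzyme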
# Target sequence (P55789 whole entry, looked up): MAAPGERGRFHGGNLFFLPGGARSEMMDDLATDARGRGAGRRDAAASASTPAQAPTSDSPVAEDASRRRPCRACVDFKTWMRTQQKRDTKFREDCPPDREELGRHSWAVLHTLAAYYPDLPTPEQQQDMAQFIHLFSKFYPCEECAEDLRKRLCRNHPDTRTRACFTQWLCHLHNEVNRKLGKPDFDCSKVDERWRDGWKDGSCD
# Ecoli rRNA inh OD600: second read-out of Ecoli rRNA inh, no call of its own (marks repeat the call); OD600 change, %; measured here: OD600 growth;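 optical density of the mix in the first replicate; 0 = DMSO median and -100 = no signal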
# Ecoli rRNA inh RFP: recorded beside Ecoli rRNA inh, whose call it bears; RFP signal change, %; measured here: RFP humanized mutant strains;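 first replicate; 0 = DMSO median and -100 = no signal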
# The depositor's hits bear a star; i = inactive; u = inconclusive; x = no result given; & = joins results of further samples.
SMILES,Beta cell apopt,AF4-AF9 inh,Ecoli rRNA inh,Ecoli rRNA inh OD600,Ecoli rRNA inh RFP,T cruzi repl,FGF22 binding,RanGTP-Imp inh,Calb FLC,ALR inh
COc1ccccc1NC(=O)C1=C(C)N(c2ccccc2)C(=S)NC1c1cccc(C(F)(F)F)c1 (stereo not drawn),0.0,x,6.4,-6.0,1.2,32.9,x,3.4,2.2,-7.8
CCCC/S(CC1CC1(Cl)Cl)=N\S(=O)(=O)c1ccc(C)cc1 (stereo not drawn),-7.6,x,x,x,x,3.9,x,-2.4,-7.9,-6.6
COc1ccc(C2N(C(C)=O)CCN2S(=O)(=O)c2ccc(C)cc2)cc1 (stereo not drawn),x,0.6,3.2,5.8,1.4,0.0,i,2.6,-3.1,-19.3
Cc1cccnc1NC(=O)c1cccc(S(=O)(=O)N2CCCc3ccccc32)c1,-0.5,1.1,-16.0,-29.2,-3.5,6.9,i,5.2,35.8,1.4
C=CCn1c(SCC2CCCCO2)nc2sc(CC)cc2c1=O (stereo not drawn),26.9,-5.8,-20.3,-24.6,-0.2,25.6,i,-2.4,-8.0,x
CCOC(=O)N1CCC(N2Cc3cccc(C(=O)NCc4ccc(OC)cc4)c3C2=O)CC1,4.3,x,x,x,x,16.5,x,0.6,-4.7,-5.4
S=C(NNc1nc(Nc2ccccc2)nc(N2CCCCC2)n1)NC1CCCCC1,-12.8,4.6,-3.2,-2.8,1.5,7.7,i,4.0,-8.9,0.2
COc1ccc(C(=O)O/N=C(\N)c2ccccn2)cc1[N+](=O)[O-],x,-4.9,10.6,8.5,1.7,-15.3,i,4.8,-0.1,24.7
CCOC(=O)C(=O)Nc1ccccc1C(N)=O,-2.6,x,x,x,x,-10.7,x,0.7,3.7,-9.2
CCOC(=O)CNS(=O)(=O)c1ccc(C(=O)O)cc1,-2.2,x,x,x,x,-7.7,x,2.6,-1.7,-9.0
COc1cc(NC(=O)N[C@H](C(=O)O)C(C)C)cc(OC)c1,-5.6,x,x,x,x,-0.5,x,-0.3,-10.7,-4.4
O=C(CSc1nc(C2CC2)nc2ccccc12)N1c2ccccc2Sc2ccccc21,x,x,x,x,x,58.6*,x,3.9,1.0,44.5
COc1cccc(NC(=O)c2ccc(N3C(=O)C4CCC(C)CC4C3=O)cc2)c1 (stereo not drawn),-2.2,-8.3,-1.3,4.5,-0.1,-9.7,i,-0.1,-1.3,67.1
Cc1cc2ncn(C(=O)c3c(-c4c(Cl)cccc4Cl)noc3C)c2cc1C,0.9,x,x,x,x,8.3,x,1.6,-1.4,-2.7
COC(=O)C1=CN(Cc2ccc(C)cc2)C=C(C(=O)OC)C1c1cc(OC)c(OC)c(OC)c1,1.3,-17.4,-0.4,2.4,2.7,12.8,i,8.0,4.4,4.7
Cc1ccccc1-c1ncc(CN2CCN(C3CCCCC3)C(CCO)C2)cn1 (stereo not drawn),-2.8,-18.3,8.2,10.7,-0.8,6.6,i,4.8,-1.9,x
COc1ccc(CCN/C=C2/CC(=O)NC2=O)cc1OC,-3.5,x,x,x,x,0.9,x,u,1.6,-2.8
O=C(CCc1ccccc1)N1CCCC1,-1.9,-1.7,13.7,16.8,0.0,-1.6,i,-2.1,16.4,-32.3
Cc1nc2ccc(NC(=O)COc3ccccc3C)cc2s1,-5.7,-2.9,-0.7,-1.6,0.0,-0.1,i,2.6,u,-58.1
CCN(CCC(=O)Nc1cc([N+](=O)[O-])ccc1OC)Cc1ccccc1,0.7,x,x,x,x,-17.3,x,2.8,-4.5,1.3
CC(C)C[C@H](N)c1nnc(SCC(=O)Nc2ccc(Br)cc2)o1,-5.9,2.2,3.4,10.5,0.8,-0.4,i,3.4,0.1,99.0*
CCCCCCCCCCS(=O)(=O)N/N=C/c1ccc([N+](=O)[O-])cc1,4.6,2.5,3.0,-2.4,-5.5,-1.8,i,u,-6.2,-0.9
COCCNC(=O)c1onc(CSc2ccccn2)c1C(=O)NCCOC,-2.9,-3.8,4.4,12.8,0.3,-13.7,i,0.0,-3.4,1.3
Cc1ccc(C)c(NC(=O)Cc2csc(-c3ccccc3)n2)c1,2.4,x,x,x,x,13.0,x,u,-0.7,28.2
O=C(CN1C(=O)c2ccccc2C1=O)NC1CCCCC1,-8.3,-5.2,7.4,12.9,-0.7,-23.8,i,1.6,u,-1.8
# Next section
SMILES,Beta cell apopt,AF4-AF9 inh,Ecoli rRNA inh,Ecoli rRNA inh OD600,Ecoli rRNA inh RFP,T cruzi repl,FGF22 binding,RanGTP-Imp inh,Calb FLC,ALR inh
COc1ccc(-n2c(=O)[nH]cc(C(=O)N3CCc4ccccc43)c2=O)cc1,-2.2,x,-1.4,-13.2,-3.9,-9.9,x,2.1,-16.2,-9.3
Cc1ccccc1CNS(=O)(=O)c1csc(C(N)=O)c1,-2.0,2.4,12.1,10.8,3.4,1.6,i,3.8,-7.2,2.0
Cc1cc(OCC(=O)OCC(=O)NC2CCCCCC2)ccc1Cl,-0.5,-4.7,8.7,15.1,-0.8,x,i,x,x,x
Cc1cc(NC(=O)c2cccc(Oc3ccccc3)c2)n[nH]1,-4.3,-0.4,-22.0*,-11.3*,-1.6*,-4.9,i,-0.6,95.9*,12.9
O=C(NCC1CCCCC1)C1CCC(=O)N(CCc2cccc(F)c2)C1 (stereo not drawn),2.5,3.8,-8.1,-7.4,1.2,-9.3,i,0.2,-16.6,3.5
COc1ccccc1C(=O)Nc1nc2ccc(S(C)(=O)=O)cc2s1,6.7,x,x,x,x,1.0,x,-4.3,-4.8,-1.2
COc1ccc(NC(=O)CS(=O)CC(=O)Nc2ccc(NC(C)=O)cc2)cc1 (stereo not drawn),0.8,-1.3,5.0,5.8,-0.5,-6.9,i,5.9,-0.5,0.3
CCC(C)Nc1nc2c(c(=O)n(C)c(=O)n2C)n1Cc1cccc(C)c1 (stereo not drawn),-3.2,x,x,x,x,5.4,x,2.4,-9.1,97.4*
O=C(O)c1cn(-c2ccc(F)cc2)c(=O)c2ccccc12,-9.0,-0.3,-3.5,2.2,-1.1,-19.8,i,2.9,5.5,-20.0
CCOC(=O)c1[nH]c2cc(OC)c(OC)cc2c1NC(=O)C(C)N1CCN(Cc2ccccc2)CC1 (stereo not drawn),10.1,x,x,x,x,7.5,x,-1.6,-2.2,13.1
Oc1ccc(CCNc2c3ccccc3nc3ccccc23)cc1O,-6.2,19.5,-26.5,-29.9,-13.3,10.5,i,103.3*,57.1,98.7*
COc1ccc(-c2cnc(N)n2CC2CCCO2)cc1 (stereo not drawn),6.0,x,x,x,x,-4.7,x,-1.3,32.1,28.1
O=C(Nc1ccccc1)OCCNC(=O)c1cccc(Br)c1,0.6,-0.2,-10.7,-8.2,-0.6,2.1,i,0.7,2.7,-9.5
O=C(O)C1CCCN1C(=O)c1cccs1 (stereo not drawn),-7.0,x,x,x,x,-5.4,x,3.0,-3.5,-0.4
COc1ccc(NCN2C(=O)C3C4C=CC(C4)C3C2=O)cc1 (stereo not drawn),1.4,2.2,17.9,12.9,0.0,16.7,i,1.6,-1.8,73.0
CCN(CC(=O)NCc1ccncc1)S(=O)(=O)c1ccccc1,-3.8,-3.8,1.7,5.1,-1.5,-13.7,i,2.8,-4.1,-0.6
[O-]/[N+](=C/c1ccco1)c1ccccc1,-2.6,0.8,1.2,8.4,-2.8,-6.3,i,1.1,-8.6,-4.4
Cc1ccc(-n2c(CCc3nc4ccccc4[nH]3)n[nH]c2=S)cc1,1.2,-7.0,-7.2,7.2,4.7,-3.9,i,2.6,-9.4,x
O=C(CN1CCC(n2nnc3cc(C(F)(F)F)ccc32)CC1)NNC(=O)c1ccco1,0.4,-3.5,16.1,13.5,0.8,-24.4,i,u,-14.9,-6.4
COc1ccc2cc3cc(C(=O)NCC4COc5ccccc5O4)oc3nc2c1 (stereo not drawn),-0.4,x,x,x,x,17.9,x,2.7,-2.5,4.5
CC(/C=C1\SC(=S)N(NS(=O)(=O)c2ccccc2)C1=O)=C\c1ccccc1,-4.8,1.6,-43.1*,-24.9*,-7.7*,-7.5,i,u,-9.8,97.7*
C[C@@H]1CN([C@@H](C)CO)C(=O)c2cc(NC(=O)C3CC3)ccc2O[C@@H]1CN(C)C(=O)NC1CCCCC1,-5.6,-4.5&-6.2,3.7&6.2,3.7&19.4,-0.8&6.1,x,i,x,x,1.4
O=C(N/N=C\c1ccc(-c2ccc([N+](=O)[O-])cc2)o1)C1COc2ccccc2O1 (stereo not drawn),-2.2,-4.5,12.7,12.6,6.0,59.3*,i,-31.2,-14.1,-8.7
COc1ccc(NC(=O)CN(C)C(=O)c2ccc(NS(=O)(=O)c3ccc(C)c([N+](=O)[O-])c3)cc2)cc1,-1.8,-2.2,5.6,4.3,-2.8,-1.5,x,0.9,4.1,-1.0
COc1ccc(NCc2nnc(SCC(=O)Nc3nc(-c4ccccc4)cs3)n2-c2ccccc2)cc1,u,2.2,x,x,x,2.3,i,3.5,-4.9,-8.8
Cc1cccc(N(C)C(=O)CCS(=O)(=O)c2cc3c(cc2Cl)NC(=O)CO3)c1,-3.2,-2.2,-5.8,-4.6,0.5,-3.9,i,-1.1,0.4,-6.4
COc1ccc2[nH]c(C(=O)O)c(NS(=O)(=O)c3ccc(OC)c(OC)c3)c2c1,-1.3,x,x,x,x,-12.2,x,0.8,6.5,x
O=C(CCCCCNc1nc(=S)[nH]c2ccccc12)NCCc1ccc(Cl)cc1,1.6,-2.5,2.0,-3.6,7.1,23.9,i,-1.3,-9.6,1.1
CCCC(=O)Nc1ccc(C(=O)Nc2nnc(COC)s2)cc1,-5.2,x,x,x,x,-14.7,x,-7.3,0.7,-7.8

# Random excerpt: 2 records from the list.
SMILES,Beta cell apopt,AF4-AF9 inh,Ecoli rRNA inh,Ecoli rRNA inh OD600,Ecoli rRNA inh RFP,T cruzi repl,FGF22 binding,RanGTP-Imp inh,Calb FLC,ALR inh
COc1ccc2[nH]c(C(=O)O)c(NS(=O)(=O)c3ccc(OC)c(OC)c3)c2c1,-1.3,x,x,x,x,-12.2,x,0.8,6.5,x
COc1ccc(-c2cnc(N)n2CC2CCCO2)cc1 (stereo not drawn),6.0,x,x,x,x,-4.7,x,-1.3,32.1,28.1

# Laid out differently: 2 of the compounds above
mol	Beta cell apopt	AF4-AF9 inh	Ecoli rRNA inh	Ecoli rRNA inh OD600	Ecoli rRNA inh RFP	T cruzi repl	FGF22 binding	RanGTP-Imp inh	Calb FLC	ALR inh
Cc1ccc(-n2c(CCc3nc4ccccc4[nH]3)n[nH]c2=S)cc1	1.2	-7.0	-7.2	7.2	4.7	-3.9	i	2.6	-9.4	x
O=C(CN1CCC(n2nnc3cc(C(F)(F)F)ccc32)CC1)NNC(=O)c1ccco1	0.4	-3.5	16.1	13.5	0.8	-24.4	i	u	-14.9	-6.4

# Not all compounds are listed; count on the stated rates, not on these rows.
